VDR inhibitor = vitamin D3 receptor (human) inhibition. P11473. VDR-SRC2-3 peptide fluorescence polarization, 2 h. Potency, µM, for the others: max response, negative = inhibition, most hits filed as inhibitors. 400,000 compounds, 0.93% hits. AID 504847; active = well fitted inhibition curve with a large enough effect; inconclusive = small, poorly fitted or top-dose-only effect, or another doubt; inactive = no such curve, though single readings can be large or run the other way; note: series mostly up to about 120 µM
Target sequence (P11473 whole entry, looked up): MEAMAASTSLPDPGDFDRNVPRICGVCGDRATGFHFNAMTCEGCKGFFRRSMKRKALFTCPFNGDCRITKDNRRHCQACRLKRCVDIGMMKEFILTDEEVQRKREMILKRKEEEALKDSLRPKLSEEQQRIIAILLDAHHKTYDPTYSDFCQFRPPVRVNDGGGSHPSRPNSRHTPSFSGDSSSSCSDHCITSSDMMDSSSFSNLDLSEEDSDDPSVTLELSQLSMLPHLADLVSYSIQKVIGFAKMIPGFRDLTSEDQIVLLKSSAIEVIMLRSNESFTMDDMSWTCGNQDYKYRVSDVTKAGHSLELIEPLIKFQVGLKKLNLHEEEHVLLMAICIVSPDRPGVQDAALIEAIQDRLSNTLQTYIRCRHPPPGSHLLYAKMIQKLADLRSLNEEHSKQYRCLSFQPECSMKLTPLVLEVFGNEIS
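Reagent solutions, kept cold and dark, are dispensed first; compounds are then pinned in at 23 nl, plates briefly spun, and incubated 2 h at ambient temperature. Inhibition of VDR–SRC2-3 peptide binding is read by fluorescence polarization.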
* hit, by the source's call; ? = inconclusive; & = joins results of further samples. % is set by controls: 0 for no effect and ±100 for the full control effect; potency is the fitted concentration of half-maximal effect. Only part of the results is shown (hit frequency here may not be typical).

SMILES	VDR inhibitor
Clc1cc(Cl)cc(CSc2nnc(-c3sccc3-n3cccc3)o2)c1	8%
CCOc1ccc(NCc2cccn2-c2nnc(N3CCC(C(=O)NCc4ccccc4Cl)CC3)s2)cc1	-13%
CC1(C)CC(NC(=O)COc2ccc(Cl)cc2Cl)CC(C)(C)N1	-11%
CCOC(=O)c1cc2c(=O)n3ccccc3nc2n(CC2CCCO2)c1=NC(=O)c1ccc(C(C)(C)C)cc1 (centres undefined)	-5%
CC1(C)C2CCC1(CS(=O)(=O)Nc1ccc(S(=O)(=O)N3CCCCC3)cc1)C(=O)C2 (centres undefined)	4%
CCCS(=O)(=O)N1CCCC(C(=O)NC2CCCC(C)C2C)C1 (centres undefined)	3%
Cc1nnc(SCC(=O)Nc2sc3c(c2C(N)=O)CCC(C)C3)[nH]c1=O (centres undefined)	-17%
Cc1ccc(-n2ncc(C(=O)NCCN3CCc4ccccc4C3)c2C2CCNCC2)cc1C	13%
COc1ccc(CN(C)C(=S)Nc2ccc(OC(F)F)cc2)cc1	-9%
CC(C)CN(C(=O)C1CSC2(C)CCC(=O)N12)c1c(N)n(Cc2ccccc2)c(=O)[nH]c1=O (centres undefined)	21%
O=[N+]([O-])/C(C(=C(Cl)Cl)N1CCN(Cc2ccccc2)CC1)=C1\NCCN1Cc1ccc(Cl)nc1	6%
COc1cc(C(=O)OCCCc2cc3ccccc3c(=O)o2)cc(OC)c1OC	11%
O=C(Nc1ccc(N2CCOCC2)cc1)c1cc2c(s1)CCCCC2	-14%
C/C(=N\NC(=O)c1nnn(-c2nonc2N)c1-c1cccs1)c1cccc(O)c1	-1%
O=C(COC(=O)c1cc(S(=O)(=O)N2CCOCC2)c(Cl)cc1Cl)NC1CC1	-1%
CC(NC(=O)/C(C#N)=C/c1cccs1)c1ccccc1 (centres undefined)	0%
Cc1ccc(Cl)cc1NC(=O)CCn1cccc1	1%
O=C(N/N=C/C(Cl)=C/c1ccc([N+](=O)[O-])cc1)C(=O)Nc1ccc(C(=O)O)cc1	?
O=C(NCc1ccccc1)c1ccc2c(c1)CCN2S(=O)(=O)c1ccc(Cl)cc1	8%
CCCn1c2ccccc2c2cnn(CC(=O)NCC3CCN(Cc4ccc(F)cc4)CC3)c(=O)c21	0%
CC(O)/C=C/C1OC(=O)CC1Nc1ccc(C=O)cc1 (centres undefined)	-10%
O=C(Nc1ccc(Oc2nnc(-c3ccccc3)c3ccccc23)cc1)c1ccccc1	-16%
CC(C)C(NC(=O)c1ccc(C(C)(C)C)cc1)C(=O)Nc1cccc(S(N)(=O)=O)c1 (centres undefined)	-11%
CN(C)CCCOC(=O)COc1ccc(C(C)(C)C)cc1	6%
CN(C)CCN(Cc1cc2cc3c(cc2[nH]c1=O)OCO3)C(=S)NCc1ccco1	5%
O=C(Cn1cnc2scc(-c3ccc(Cl)cc3)c2c1=O)N1CCOCC1	3%
COc1ccc(CCNC(=O)Nc2cccc([N+](=O)[O-])c2)cc1OC	-6%
FC(F)(F)c1nnc(-c2ccccc2)nc1N1CCCC1	-8%
O=C(NC(=S)NCCOCc1ccc(Cl)cc1)c1cccnc1	-6%
CC(C)(C)OC(=O)N1CCC(C(=O)N2CCC[C@H]2C(=O)O)CC1	2%

Quoted at random: two records from the list.
SMILES	VDR inhibitor
O=C(Cn1cnc2scc(-c3ccc(Cl)cc3)c2c1=O)N1CCOCC1	3%
CC(O)/C=C/C1OC(=O)CC1Nc1ccc(C=O)cc1 (centres undefined)	-10%

Following part
SMILES	VDR inhibitor
CC1(C)Nc2cccc3cccc(c23)N1	?
CC(C)N(C(=O)CSc1nc2ccccc2c(=O)[nH]1)C(C)C	7%
C=C(NC(=O)C(=C)NC(=O)c1csc(C2=NC3c4csc(n4)C4NC(=O)c5csc(n5)C(C(C)(O)C(C)O)NC(=O)C5CSC(=N5)/C(=C/C)NC(=O)C(C(C)O)NC(=O)c5csc(n5)C3(CC2)NC(=O)C(C)NC(=O)C(=C)NC(=O)C(=C)NC(=O)C(C(C)C)NC2C=Cc3c(C(C)O)cc(nc3C2O)C(=O)OC4C)n1)C(N)=O (centres undefined)	-27%
N#Cc1ccc(C(=O)NC(=S)N2CCOCC2)cc1	-8%
O=C(OCc1ccccc1)/C(=C/c1cccc(Br)c1)NC(=O)c1ccco1	-21%
O=C(NCC(=O)N(c1ccc(F)cc1)C(C(=O)NC1CCCC1)c1cccnc1)c1cccs1 (centres undefined)	-10%
O=C(c1ccccc1)c1ccc(C(=O)N2CCOCC2)cc1	-12%
Cc1ccc(OCc2nnc(SCC(=O)O)n2N)cc1	0%
COc1ccccc1NC(=O)c1oc2ccccc2c1NC(=O)C1CC1	-13%
CCOc1ccccc1NC(=O)c1ccc2c(c1)C(=O)N(C(C)(C)C)C2=O	-16%
O=C(CN(Cc1ccccc1F)C(=O)c1csnn1)NC1CCCCC1	-15%
Cc1ccc(-c2cn(S(=O)(=O)c3cccc([N+](=O)[O-])c3)nc2N)cc1	21%
CN(CC(=O)Nc1ccc(N2CCOCC2)cc1)C(=O)Cc1ccccc1	-7%
CN(C(=O)COc1ccccc1)c1nnc(C23CC4CC(CC(C4)C2)C3)s1	?
C(=C\c1ccccc1)/C=N/Nc1nc(N2CCCCC2)nc(N2CCCCC2)n1	11%
CC(C)NC(=O)c1ccc(Cn2c(SCc3ccc(F)cc3)nc3cccnc32)cc1	-1%
COc1ccc(C(=O)CC(=O)C(=O)Nc2cccc(F)c2)cc1	3%
Cc1ccc(-c2cccc(C3CC=CC4C3C(=O)N(Cc3ccccc3)C4c3cc(C)ccc3F)c2)cc1 (centres undefined)	-15%&7%
O=C(NN=C1CCCCCCC1)c1ccc(F)cc1	-20%
Cc1cccc(NC(=O)CSc2nc(=O)n(CCN3CCOCC3)c3c2CCC3)c1C	6%
CN(C)CC/C=C1\c2ccccc2COc2ccccc21	-7%&-1%&4%&9%
CCC(OC(=O)c1cc2sccc2n1C)C(=O)NCC1CCCO1 (centres undefined)	-5%
C#CCN(C[C@@H](CC(C)C)NC(=O)OC(C)(C)C)S(=O)(=O)c1ccc(Br)cc1F	-25%
CC(=O)N1CCN(Cc2nc3cc(NC(=O)c4ccccc4)ccc3n2C)CC1	0%
Nc1cc(N)nc(SCCOc2ccccc2)n1	-3%
CS(=O)(=O)c1ccccc1C(=O)Nc1ccc(-c2nc3ccccc3[nH]2)cc1	-3%
N#Cc1cc(-c2ccc(Cl)cc2)cnc1Sc1ccccc1	1%
C=CCNCCCCOc1ccccc1	-5%
COc1ccc(C(=O)Nc2nccs2)cc1OC	-1%
CS(=O)(=O)N1CCC2(CCN(c3cccc(-c4ccccc4)c3)CC2)CC1	-5%
CCN(CC)C(=O)Cn1cc(C(=O)C(=O)N2CCCc3ccccc32)c2ccccc21	13%
O=S(=O)(NCc1cccnc1)c1cc(Cl)ccc1Cl	-1%
CCOC(=O)c1ccc(NS(=O)(=O)N2CCCCCC2)cc1	8%
COc1ccc(NC(C)=O)cc1NS(=O)(=O)c1cn(C)c(=O)n(C)c1=O	-16%
Cc1ccc(C)c(NC(=S)NCc2cccs2)c1	10%
CCOC(=O)CNc1ncnc2nc[nH]c12	-14%
Nc1ccccc1-c1nnc(SCc2ccccc2Cl)[nH]c1=O	-4%
Cc1ccc(NC(=O)CSC2=C(C#N)C(c3ccc4c(c3)OCO4)C3=C(CCCC3=O)N2)c(C)c1 (centres undefined)	4%
CC(=O)NNC(=O)CCn1nnc2ccccc21	-12%
CCOC(=O)N1CCC(N2CCN(c3ccccc3)CC2)CC1	-4%
CC(NC(=O)c1ccc(NC(=O)CC2SC(N3CCCC3)=NC2=O)cc1)c1ccccc1 (centres undefined)	7%
CCOC(=O)c1nnn(-c2nonc2N)c1-c1cccc2ccccc12	12%
CN1CCN(c2ccc(S(=O)(=O)N3CCCCC3)cc2NC(=O)Cc2ccccc2F)CC1	25%
CC(C)[C@H](NC(N)=O)C(=O)Nc1ccc(OCc2ccccc2)cc1	0%
COC(=O)C(CC(C)C)NS(=O)(=O)c1ccccc1Br (centres undefined)	-12%
CCN1CCN(c2ccc(S(=O)(=O)N3CCCCC3)cc2NC(=O)COc2ccc(Cl)c(C)c2)CC1	20%
CNC(=S)N1CCn2cccc2C1c1cc(OC)c(OC)c(OC)c1 (centres undefined)	-3%
COc1cccc(NC(=O)CSc2nc3c([nH]c4ccccc43)c(=O)n2C)c1	13%
CC(C)c1ccc(OCC(=O)N2CCc3ccccc3C2)cc1	-5%
O=C1c2ccccc2C(=O)N1CCSc1nc2ccccc2c(=O)n1CCCN1CCOCC1	-18%

Next part (four carried over from the part before).
SMILES	VDR inhibitor
CNC(=S)N1CCn2cccc2C1c1cc(OC)c(OC)c(OC)c1 (centres undefined)	-3%
COc1cccc(NC(=O)CSc2nc3c([nH]c4ccccc43)c(=O)n2C)c1	13%
CC(C)c1ccc(OCC(=O)N2CCc3ccccc3C2)cc1	-5%
O=C1c2ccccc2C(=O)N1CCSc1nc2ccccc2c(=O)n1CCCN1CCOCC1	-18%
COC(C[C@H](O)[C@@H](C)[C@H](O)COCc1ccccc1)OC	-2%
Cc1cccc(NC(=O)CNC(=O)CN2C(=O)NC3(CCc4ccccc43)C2=O)c1C (centres undefined)	-6%
Cn1nc(C(=O)N2CCN(c3ccccc3F)CC2)c2c1-c1ccccc1SC2	-4%
CCc1ccc(N(CC(=O)NCC2CCCO2)C(=O)CCC(=O)Nc2nccs2)cc1 (centres undefined)	0%
Cc1c(Cl)cccc1N1C(=O)C2ON(c3ccccc3)C(c3cccnc3)C2C1=O (centres undefined)	-15%
CCn1c(CSc2nccn2C)nc2cc(C(=O)O)ccc21	?
O=C(NCc1ccccc1)c1cnc(Cl)c(Cl)c1	10%
COc1cccc(NC(=O)C(NCC2CCCCC2)c2ccccc2)c1 (centres undefined)	17%
Cc1nc2sc(C(=O)N(C)c3ccccc3)c(NC(=O)c3ccccc3Cl)c2c(C)c1C	2%
COc1ccc(OC)c(NC(=O)c2cnn(-c3ccccc3)c2C)c1	1%

Sorted by molecular weight (rising): some entries from above.
SMILES	VDR inhibitor
CCn1c(CSc2nccn2C)nc2cc(C(=O)O)ccc21	?
COc1ccc(OC)c(NC(=O)c2cnn(-c3ccccc3)c2C)c1	1%
COc1cccc(NC(=O)C(NCC2CCCCC2)c2ccccc2)c1 (centres undefined)	17%
Cn1nc(C(=O)N2CCN(c3ccccc3F)CC2)c2c1-c1ccccc1SC2	-4%
Cc1cccc(NC(=O)CNC(=O)CN2C(=O)NC3(CCc4ccccc43)C2=O)c1C (centres undefined)	-6%
CCc1ccc(N(CC(=O)NCC2CCCO2)C(=O)CCC(=O)Nc2nccs2)cc1 (centres undefined)	0%

Later entries
SMILES	VDR inhibitor
Cc1ccc(-c2cc(C(=O)N3CCN(c4ncccn4)CC3)c3ccccc3n2)cc1	-7%
N#Cc1ccccc1NC(=O)COC(=O)c1ccc2c(c1)OCCO2	2%
O=C(O)c1c2c(nc3ccc(S(=O)(=O)N4CCC(C(=O)NCc5ccc(Cl)cc5)CC4)cc13)CCCC2	3%&22%
C/C(=N\NC(=O)c1ccc2c(c1)OCO2)c1ccc2c(c1)OCO2	-19%
COc1ccccc1CC(=O)N(CCC#N)CCC#N	-6%
CC(=O)c1cc(F)c(N2CCN(C(=O)COc3ccccc3F)CC2)cc1C	8%
O=C(Nc1ccc2oc(-c3ccncc3)nc2c1)c1c(F)c(F)c(F)c(F)c1F	-7%
CN(C(=O)c1cccc(NC(=O)Cc2cccc(NC(=O)C3CCCN(C(=O)C4CCCCC4)C3)c2)c1)C1CCC1 (centres undefined)	-10%
O=C(NCc1cccc(C(F)(F)F)c1)C1CCN(c2ncccn2)CC1	-3%
O=C(NC1CCCCC1)C1(c2ccccc2)CC1(Cl)Cl (centres undefined)	3%
CCOC(=O)C1CCN(C(=O)/C=C/c2ccccc2)CC1	2%
O=C(CS(=O)(=O)c1nc(-c2ccc(Cl)cc2)cn1-c1ccccc1)Nc1ccc(F)cc1F	?
CCc1nc2nc(C)c(NS(=O)(=O)c3ccc(CC(C)C)cc3)c(=O)n2[nH]1	-4%
CC(C)c1ccc(C2CC(=O)c3cnc(NC(=O)c4ccco4)nc3C2)cc1 (centres undefined)	-9%
Cc1ccc(S(=O)(=O)NCc2ccc(C(=O)N3CCN(c4ccccn4)CC3)cc2)cc1	13%
C(=N\n1cnnc1)/c1ccc(OC2CSC2)cc1	-4%
CC(C)=CCc1c(O)cc(O)c2c(=O)c3c(CC=C(C)C)c(O)ccc3oc12	-6%
CC(C)Nc1nc(Cl)nc(NCCOc2ccccc2)n1	7%
CCN1CCN(C(=O)c2ccc3c(c2)S(=O)(=O)c2ccccc2C3=O)CC1	-17%
CCC(C)Sc1ccc([C@@H]2[C@H]3C(=O)N(CC)C(=O)[C@H]3[C@]3(C(=O)OC)CCCCN23)cc1 (some centres undefined)	-25%
O=C(CCS(=O)(=O)c1ccc(Cl)cc1)N1CCN(S(=O)(=O)c2cccs2)CC1	-5%
CC1CCCN(CC(=O)N2c3ccccc3Sc3ccccc32)C1 (centres undefined)	-11%
CC(=O)Nc1cccc(C(=O)NCc2ccc3c(c2)CCN3C(C)=O)c1	1%
Cc1nnc(SCC(=O)O)s1	-22%
CCN1CCN(C(c2cccs2)C(C)NC(=O)C(=O)N2CCCCC2)CC1 (centres undefined)	5%
CCN1CCN(CCCNC(=O)c2cc3c(=O)oc4ccc(C)cc4c3s2)CC1	-5%
O=C(Cn1cc(C(F)(F)F)cc(Cl)c1=O)NCc1ccc(F)cc1	-2%
C/C(=N\NC(N)=O)C1CC(CC(C)C)C(=O)O1 (centres undefined)	-9%
Cc1ccc(N2CC(C(=O)NCCN3CCOCC3)CC2=O)cc1 (centres undefined)	3%
COc1ccc(Nc2nc(-c3c[nH]c4ccccc34)cs2)cc1	6%
O=C(N/N=C/c1ccncc1)c1cnccn1	-23%
COc1ccc(-c2nnc(-c3ccc(C)cc3)o2)cc1	-4%
